Rce1 inhib – blocks yeast Ras-converting enzyme; Q03530; yeast membranes, quenched prenylated peptide cleavage fluorescence; calls only; 290,000 compounds, 0.27% hits;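 active = fall in fluorescence gain of 50% or more versus controls, with final raw signal at or below 3038400; inconclusive = same 50% fall but final raw signal above 3038400; inactive = fall in fluorescence gain under 50%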;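 also: plate controls were neutral control wells for no effect and wells lacking membranes for full effect; tested at 10 µM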
Target sequence (Q03530 whole entry, looked up): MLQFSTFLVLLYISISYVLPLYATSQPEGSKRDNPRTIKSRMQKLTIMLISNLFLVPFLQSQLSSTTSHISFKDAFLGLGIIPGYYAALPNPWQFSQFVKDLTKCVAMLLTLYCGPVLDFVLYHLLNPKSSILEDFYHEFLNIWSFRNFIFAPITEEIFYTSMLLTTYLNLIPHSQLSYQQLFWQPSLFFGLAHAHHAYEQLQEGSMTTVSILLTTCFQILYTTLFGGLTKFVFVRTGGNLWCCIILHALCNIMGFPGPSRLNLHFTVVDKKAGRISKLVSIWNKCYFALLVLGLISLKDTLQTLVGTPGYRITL
Yeast UUG start – yeast start codon fidelity modulation. S. cerevisiae UUG-firefly luciferase reporter, luminescence/redox ratio. activity score, % at 18.7 µM. 350,000 compounds, 0.13% hits. AID 602363;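 active = replicate mean at a twofold rise or more, about +100% in these data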;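 also: firefly luciferase made from a UUG start codon reports start codon fidelity; reporter light over untreated wells divided by growth signal over untreated wells; some hits fall short of that in this replicate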
MT1-MMP act inh – MT1-MMP (human) activation inhibition | P50281 | 360,000 compounds, 0.061% hits | HT1080 RFP-PRO-GFP cells, GFP/RFP ratio fluorescence, overnight; percent of plate control window, DMSO zero | AID 651647 | GFP/RFP ratio change, % at 20 µM;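 active = GFP/RFP ratio change of at least 30% with cell ATP level not reduced by more than half and red fluorescence within 50% of control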; also: strong numbers were not always called active
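Test system: HT1080 cells expressing an RFP-PRO-GFP fluorescent reporter construct / Compound dosing: single-point 20 µM compound, 1% DMSO / Schedule: cells overnight before dosing, compound overnight, 37 °C, 5% CO2 / Evaluation: GFP/RFP fluorescence ratio / Control set: DMSO and RFP-L50D-GFP cell wells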
PABP FP inh – PABP-poly(A) binding inhibition | PABP-poly(A) RNA binding, fluorescence polarization | inhibition, % at 35 µM | 290,000 compounds, 1% hits | AID 2014;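 active = 50% or more with normal probe brightness, or confirmed in later tests; inconclusive = above 50% with abnormal brightness, or retests that disagree; inactive = below 50% or failed in later tests; about a fifth of its hits are not listed in these tables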;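 also: calls also rest on retests at 20 µM and on dose response follow-up; controls were probe without protein and protein plus probe with vehicle; some compounds called inactive have numbers as strong as hits; many hits fall short of the cut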
Target sequence (P11940 whole entry, looked up): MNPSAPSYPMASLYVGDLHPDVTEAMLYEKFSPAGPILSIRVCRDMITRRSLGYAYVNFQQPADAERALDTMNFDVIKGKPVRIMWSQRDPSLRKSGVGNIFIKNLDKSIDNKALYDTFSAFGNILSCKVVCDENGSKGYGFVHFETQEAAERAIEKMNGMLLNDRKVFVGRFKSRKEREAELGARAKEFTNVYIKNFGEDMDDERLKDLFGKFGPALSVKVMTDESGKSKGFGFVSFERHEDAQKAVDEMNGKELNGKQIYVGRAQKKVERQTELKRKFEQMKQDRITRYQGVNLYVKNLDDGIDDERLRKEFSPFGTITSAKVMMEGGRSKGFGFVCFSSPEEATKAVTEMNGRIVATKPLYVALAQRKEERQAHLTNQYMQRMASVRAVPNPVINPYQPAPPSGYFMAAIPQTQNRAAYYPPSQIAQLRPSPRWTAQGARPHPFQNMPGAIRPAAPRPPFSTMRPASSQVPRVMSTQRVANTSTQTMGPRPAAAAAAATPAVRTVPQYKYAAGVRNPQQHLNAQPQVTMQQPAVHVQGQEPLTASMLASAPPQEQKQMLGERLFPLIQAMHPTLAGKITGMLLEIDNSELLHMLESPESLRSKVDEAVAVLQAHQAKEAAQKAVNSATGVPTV
eIF4H inh – inhibitors of RNA binding by human eIF4H. Q15056. eIF4H fluorescence polarization binding assay. inhibition, % at 35 µM. 290,000 compounds, 0.94% hits;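 active = 50% or more with normal probe brightness, or confirmed in later tests; inconclusive = above 50% with abnormal brightness, or retests that disagree; inactive = below 50% or failed in later tests; about a fifth of its hits are not listed in these tables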;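 also: calls also rest on retests at 20 µM and on dose response follow-up; 0% = protein and probe with vehicle and 100% = probe without protein; strong numbers were not always called active; many hits fall short of the cut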
CSC inhib – cancer stem cell inhibition; cancer stem cell-like cells viability, luminescence; inhibition, % at 7.5 µM; 300,000 compounds, 1.1% hits; AID 2717;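 active = mean at 75% or more and at least half the replicates too; inconclusive = mean and replicates disagree; tested in HMLE shEcad cells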;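 also: 0% = median of negative and 100% = median of positive control wells; the first replicate is given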
HIV Env fusion – HIV envelope-mediated fusion inhibition; HeLa-JRFL Env/CEM21 cell fusion, luciferase; inhibition, % at 12.3 µM; 360,000 compounds, 1.1% hits; AID 651610;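 active = mean replicate inhibition score of at least 50 and every replicate individually at or above 50; inconclusive = only one of the two criteria met; inactive = mean below 50 and not all replicates reaching 50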;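 also: 0% = plate neutral controls and 100% = maraviroc near 300 nM; one replicate is shown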
MT1-MMP act inh RFP – further read-out of MT1-MMP act inh, marked with its call; RFP signal change, %; measured here: RFP expression control read;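 0 = vehicle wells; hits needed this value within 50% of zero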
The depositor's hits bear a star; i = inactive; ? = inconclusive; / = no result given. This is a random part of the collection; any-hit rate near 2.9%.

Value order – MT1-MMP act inh RFP, Yeast UUG start, eIF4H inh, CSC inhib, PABP FP inh, Rce1 inhib, MT1-MMP act inh, HIV Env fusion
1	Cc1ccc(S(=O)(=O)N(CC(=O)NCc2ccccc2)C(=O)N2CCN(C)CC2)cc1
  2.0, /, /, /, /, i, -1.0, -22.0
2	CCCCn1nc(C(=O)Nc2ccc3c(c2)OCO3)c2ccccc2c1=O
  -9.6, -13.5, /, 0.8, /, /, -8.9, ?
3	CC(=O)/C(=N/Nc1cccc(Cl)c1)Sc1nnc(C(O)c2ccccc2)n1-c1ccccc1 (stereo not given)
  2.0, -8.2, -10.5, 0.3, 3.5, i, 0.9, 0.5
4	CCCCCC(N)=O
  7.7, 24.4, /, -1.0, /, /, -0.9, /
5	S=C(NC12CC3CC(CC(C3)C1)C2)N1CCOCC1
  4.2, /, -11.5, -12.8, -1.9, i, -3.2, -7.1
6	O=C(O)c1cccc(Nc2nc(-c3cccnc3)nc3ccccc23)c1
  1.9, /, 0.6, -8.3, 10.4, i, 2.0, 3.6
7	Cc1cc(C(=O)COC(=O)C2=COCCO2)c(C)n1-c1ccccc1
  -1.0, /, /, 2.5, /, /, 6.5, 47.3
8	CCOC(=O)c1c(NC(=O)CSc2nnc(-c3ccco3)o2)sc(C(C)=O)c1C
  1.8, 7.6, -9.2, 2.7, -4.8, /, -0.5, /
9	CCOc1cc(-c2nn3cnnc3s2)cc(OCC)c1OCC
  -1.8, -7.1, -5.5, -13.4, -10.2, i, -2.8, -213.2
10	Cc1[nH]n(-c2ccccc2)c(=O)c1/C=N/N1CCOCC1
  1.5, -15.6, -14.7, 13.7, 3.9, i, 0.8, 5.1
11	C=CC[C@H](CC(=O)N[C@H](CO)Cc1ccccc1)C(=O)N[C@H](COC(=O)[C@H](CC=C)CC(=O)OC(C)(C)C)Cc1c[nH]c2ccccc12
  -7.7, -3.4, /, -6.4, /, /, -3.4, -4.8
12	CC(=O)N1CCOc2ccc(S(=O)(=O)NCc3ccc(F)cc3)cc21
  0.8, -19.1, 36.2, -8.5, 15.1, i, 0.9, -2.4
13	Cc1ccc2occ(/C=N/NC(=O)c3ccc(Cl)cc3)c(=O)c2c1
  -2.5, -3.6, 7.8, -3.2, 6.9, i, -6.7, 25.7
14	COCCn1cnc2c1c(=O)n(Cc1cc(C(C)=O)ccc1OC)c(=O)n2Cc1ccccc1
  1.5, 10.3, 1.8, -9.7, -0.5, i, -3.8, 15.3
15	Cc1ccc(N(C(=O)C2CCCC2)C2C=CS(=O)(=O)C2)cc1C (stereo not given)
  2.2, -5.8, -8.3, -5.0, -8.9, i, -4.7, /
16	Cc1nc(NC(=S)NC(=O)COc2ccc(Cl)cc2)ccc1Br
  0.9, -16.8, -8.0, -21.4, -4.9, i, 4.8, /
17	O=C(c1cccn2c(=O)c3ccccc3nc12)N1CCN(c2ccccn2)CC1
  2.5, /, 1.3, 10.0, 8.9, i, -1.0, -25.6
18	CCOC(=O)CCCn1ccc2cc(S(=O)(=O)N3CCCC3)ccc21
  5.3, -1.1, -1.4, -3.0, 8.6, i, 5.2, 6.5
19	Cc1cc2c(ncn2Cc2ccccc2)c(N)c1C
  2.0, /, 11.9, -0.7, -9.3, i, 1.3, 8.2
20	COCCN(C(=S)Nc1cccc(Cl)c1C)C(C)c1ccco1 (stereo not given)
  -0.5, -12.1, -8.7, 7.7, 6.5, i, -1.1, 16.3

Taken from above.
In eIF4H inh, `Cc1nc(NC(=S)NC(=O)COc2ccc(Cl)cc2)ccc1Br` shows -8.0
In CSC inhib, `CCOC(=O)CCCn1ccc2cc(S(=O)(=O)N3CCCC3)ccc21` shows -3.0
In Yeast UUG start, `C=CC[C@H](CC(=O)N[C@H](CO)Cc1ccccc1)C(=O)N[C@H](COC(=O)[C@H](CC=C)CC(=O)OC(C)(C)C)Cc1c[nH]c2ccccc12` shows -3.4
In CSC inhib, `Cc1cc2c(ncn2Cc2ccccc2)c(N)c1C` shows -0.7
In MT1-MMP act inh, `COCCN(C(=S)Nc1cccc(Cl)c1C)C(C)c1ccco1` (stereo not given) shows -1.1

(next part)
Value order – MT1-MMP act inh RFP, Yeast UUG start, eIF4H inh, CSC inhib, PABP FP inh, Rce1 inhib, MT1-MMP act inh, HIV Env fusion
21	O=C(c1ccc(F)cc1)C1CCN(C(=O)c2ccc(Cl)cc2)CC1
  -7.9, -14.7, /, /, /, /, 1.3, 7.5
22	C=CCn1c(-c2ccccc2)nc(=S)c2c1CCCC2
  0.3, -4.1, -9.0, -10.8, 0.6, i, 1.4, -3.8
23	COc1cc(C(=O)Nc2nnc(S(=O)(=O)N3CCCCCC3)s2)cc(OC)c1OC
  -1.3, -7.0, 4.8, 18.8, 9.3, i, 4.9, -13.6
24	Cc1ccc(-c2cc(C(=O)N3CC(C)CC(C)C3)c3ccccc3n2)o1 (stereo not given)
  0.5, -12.8, 0.4, -3.7, 17.2, i, -6.5, 1.9
25	CCCCn1c(N)c(N(CCOC)C(=O)C2CCN(S(=O)(=O)c3ccccc3)CC2)c(=O)[nH]c1=O
  -0.3, 12.8, /, -0.6, /, i, -2.2, -28.5
26	Cc1ccc(S(=O)(=O)N2CCN(C(=O)Cc3ccccc3)CC2)cc1
  -4.6, -4.8, 1.3, -13.8, -1.6, i, -0.1, -26.3
27	N#Cc1ccc(NCC(=O)Nc2ccc(S(=O)(=O)N3CCCCC3)cc2)cc1
  2.0, -17.4, /, 1.5, /, /, 5.5, /
28	O=C1CCN(Cc2ccccc2)S(=O)(=O)c2c(F)cc(F)cc21
  1.4, -14.7, /, -8.0, /, /, 4.3, -30.0
29	CCCOc1ccc(CNC(=O)C2CCN(c3nnc(N4CCCC4=O)s3)CC2)cc1
  5.3, -10.9, 11.2, -2.5, 0.5, i, 0.4, 8.8
30	CC(C)(C)OC(=O)N[C@@H](Cc1ccccc1)c1nnc(SCC(=O)O)o1
  -7.7, -15.7, -6.8, 3.3, 9.2, i, -9.6, -7.4

Structural class, the compounds so far containing a COOH group (2)
Value order – MT1-MMP act inh RFP, Yeast UUG start, eIF4H inh, CSC inhib, PABP FP inh, Rce1 inhib, MT1-MMP act inh, HIV Env fusion
6	O=C(O)c1cccc(Nc2nc(-c3cccnc3)nc3ccccc23)c1
  1.9, /, 0.6, -8.3, 10.4, i, 2.0, 3.6
30	CC(C)(C)OC(=O)N[C@@H](Cc1ccccc1)c1nnc(SCC(=O)O)o1
  -7.7, -15.7, -6.8, 3.3, 9.2, i, -9.6, -7.4

Continued.
Value order – MT1-MMP act inh RFP, Yeast UUG start, eIF4H inh, CSC inhib, PABP FP inh, Rce1 inhib, MT1-MMP act inh, HIV Env fusion
31	CC(C)(C)N=Cc1cc(-c2ccccc2)sc1O
  -1.7, -17.1, 1.5, 17.8, 0.6, i, 3.4, -157.4
32	OCC1(CCCc2ccccc2)CCN(C2CCC2)CC1
  -2.5, 2.9, -7.9, -19.7, 1.4, i, -3.5, -3.6
33	COCc1ccc(C(=O)NC2CC(C)(C)Cc3c2cnn3-c2ccc(OC)cc2)o1 (stereo not given)
  2.3, 9.9, -8.7, 10.7, 1.4, i, 1.2, 6.7
34	O=C(OCC(=O)N1CCCc2ccccc21)c1cccc(S(=O)(=O)N2CCOCC2)c1
  -0.2, /, /, -0.4, /, i, 1.0, /
35	COc1ccc(N(CC(=O)NCCSCc2ccccc2C)S(=O)(=O)c2ccccc2)cc1
  -8.8, -11.0, -8.9, 1.4, -7.6, /, -1.8, 17.1
36	CC(C)(C)n1nnc(CCc2nnn(C(C)(C)C)n2)n1
  4.5, -23.0, 7.7, -20.1, -1.9, i, 2.7, /
37	CCN(CC)S(=O)(=O)c1ccc(N2CCOCC2)c(NC(=O)C2CCCC2)c1
  2.4, -10.3, 1.2, -10.5, -0.6, i, 0.4, -18.5
38	COCCNS(=O)(=O)c1ccc(C2CNC(=O)C2)cc1 (stereo not given)
  4.3, -15.4, -11.8, -10.3, -2.6, i, 1.2, 19.9
39	CC1=C(C(=O)Nc2ccccc2)C(c2ccc(Cl)cc2)n2c(s/c(=C/c3cccc(OCC(=O)O)c3)c2=O)=N1 (stereo not given)
  0.8, /, 16.6, 1.0, 38.6, i, 0.8, 3.1
40	O=S(=O)(Nc1cccc(CCc2ccccn2)c1)c1ccc2ccccc2c1
  6.8, -20.5, 2.1, /, -2.2, /, 5.7, -41.7
41	COCCNC(=O)c1onc(CSc2ccc(C(C)C)cc2)c1C(=O)O
  3.9, 1.8, -8.3, -4.2, 1.8, i, 1.1, -26.8
42	CC(C)OC(=O)CSc1n[nH]c(-c2cccnc2)n1
  -4.7, /, 5.7, -0.4, -3.2, i, -8.7, 5.6
43	Cc1cc(NC(=O)c2cc3nc(C4CC4)cc(C(F)(F)F)n3n2)no1
  -4.6, -13.8, -9.0, -10.4, -10.9, i, -7.6, /
44	CC(C)(C)c1ccc(C(CC(=O)O)NC(=O)CCCc2ccccc2)cc1 (stereo not given)
  5.3, /, -8.4, 3.1, 1.4, i, 4.6, 3.5
45	COc1ccccc1CN1CCNC(=O)C1CC(=O)NC1Cc2ccccc2C1 (stereo not given)
  2.0, /, -2.9, -11.3, 10.1, i, -2.4, -16.5
46	CC(C)Sc1nc2ccccc2c(=O)[nH]1
  -1.6, -20.1, -0.7, -5.3, 1.3, /, 0.3, -15.8
47	COc1cc(C)nc2nc(SCc3ccccc3)nn12
  0.1, -10.2, -17.6, -13.7, -5.5, i, 0.7, -23.4
48	COc1ccc(NCC(=O)N/N=C/C(C)c2ccccc2)cc1 (stereo not given)
  -0.3, -26.1, -2.5, 8.3, 4.7, i, 0.8, 15.6
49	Cc1ccc(-n2nnnc2SCC(=O)c2c(N)n(C3CC3)c(=O)[nH]c2=O)cc1C
  2.0, -17.8, /, /, /, /, 0.8, 5.0
50	COc1cc(OC)c(OC)cc1CCC(C)NC(=O)Cc1ccccc1 (stereo not given)
  2.3, -7.0, -3.2, -1.0, -1.1, i, 4.1, 11.7
51	O=C(Cn1cc(C(F)(F)F)ccc1=O)NC(c1ccccc1)c1ccccc1
  0.1, /, -7.1, -25.0, -2.9, i, 2.0, -6.5
52	Cc1cccc(NC(=O)CN2C(=O)N/C(=C/c3ccc(-c4cccc(C(=O)O)c4C)o3)C2=O)c1
  1.3, -11.2, 12.0, -4.2, 23.4, i, -8.1, 6.7
53	Cc1ccc(S(=O)(=O)CC(=O)Nc2nc3ccc(S(N)(=O)=O)cc3s2)cc1
  0.6, -13.7, -1.6, 2.2, 8.3, i, -0.6, 1.4
54	O=[N+]([O-])c1cccc(-c2nc(Oc3ccc(Cl)cc3)c3ccccc3n2)c1
  /, /, 14.7, 7.2, -11.6, i, /, /
55	N#CC(=C(O)COC(=O)CCC1CCCCC1)c1nc2ccccc2[nH]1
  6.0, 6.8, /, /, /, /, 0.5, 15.3
56	C=CCNC(=O)c1ccccc1NC(=O)c1ccccc1C
  3.1, 2.0, -9.5, -3.2, -3.3, i, 6.8, /
57	O=c1cc(-c2cc3ccccc3o2)c2cc(O)ccc2o1
  -4.7, 0.0, 79.5*, -4.5, 60.3*, i, -7.1, /
